# From PubChem BioAssay
# Vaccinia Venus: qHTS for Stage-Specific Inhibitors of Vaccinia Orthopoxvirus: Venus Reporter Primary qHTS. Vaccinia virus Venus reporter expression, fluorescence. 330,000 compounds, 0.46% hits. Potency, µM (doses to about 36.5 µM), for inactives: at the highest dose activity change, negative = inhibition, actives largely listed as inhibitors; active means well fitted inhibition curve with a large enough effect; inconclusive means small, poorly fitted or top-dose-only effect; inactive means no such curve, though single readings can be large or run the other way; tested in A549 cells; further: nearly all actives have a fitted effect of over 30% in size; inactives centre near -10
# Vaccinia mCherry: qHTS for Stage-Specific Inhibitors of Vaccinia Orthopoxvirus: mCherry Reporter Primary qHTS. 310,000 compounds, 0.63% hits. Potency, µM (highest dose often 36.5 µM), for inactives: at the highest dose activity change, negative = inhibition, hits mostly inhibitors. AID 720579, 2013. Vaccinia virus mCherry reporter infection, fluorescence; about a quarter of the inactives have no number; active = well fitted inhibition curve with a large enough effect; inconclusive = small, poorly fitted or top-dose-only effect; inactive = no such curve, though single readings can be large or run the other way; tested in A549 cells; further: nearly all actives have a fitted effect of over 35% in size; inactives centre near -10
# * hit, by the source's call; i = inactive; u = inconclusive; x = no result given; & = joins results of further samples; [ ] = remark or other dose. On the % scale 0 is the no-effect control and ±100 the full control effect; potency means the concentration at half of the fitted maximal effect.
entry	compound	Vaccinia Venus	Vaccinia mCherry
1	O=C1NC(=O)C(CCc2ccncc2)(CCc2ccncc2)C(=O)N1Cc1ccccc1	1%	-3%
2	O=C(Nc1nnc(-c2ccco2)o1)c1ccc(S(=O)(=O)N2CCCCC2)cc1	u	u
3	Cc1ccc(-c2cc3nc4c(c(=O)n3[nH]2)CCCC4)cc1	0%	i
4	CSCCOC(=O)COc1ccc(/C=N/NC(=O)c2c(Cl)cnn2C)cc1	-13%	i
5	CC1(C)Cc2c(c(N3CCOCC3)nc3sc(C#N)c(N)c23)CS1	-15%	-23%
6	CC1(C)CC(=O)c2sc(NS(=O)(=O)c3ccc(Cl)cc3)nc2C1	-13%	-2%
7	O=C(CSc1nnc(NC(=O)C2CCC2)s1)Nc1ccccc1F	-9%	-22%
8	COc1ccc(NC(=O)N2CCNC(=O)C2CC(=O)Nc2ccc(F)cc2)cc1 (stereo not given)	-23%	-6%
9	Cn1c(=O)c2[nH]c(C3CCCC3)nc2n(C)c1=O	-14%&-15%&-7%	-13%&-4%&-22%
10	COc1ccc2c(c1OC)C(=O)N1c3ccccc3C(=O)N(c3ccccc3)C21 (stereo not given)	1%	x
11	COc1ccccc1OCC(=O)Nc1ccc(C(=O)Nc2ccccc2C(=O)O)cc1	-4%	i
12	COc1cccc(NC(=O)CCSc2nc(-c3ccco3)cc(C(F)(F)F)n2)c1	-10%	-15%
13	CC(C(=O)Nc1cccnc1)c1ccc([N+](=O)[O-])cc1 (stereo not given)	-11%	i
14	COc1ccccc1CNCc1ccc2c(c1)OCO2	-15%	-19%
15	CCOc1ccccc1NC(=O)C1CCN(S(=O)(=O)c2cccs2)CC1	-3%	i
16	COc1cccc(CN2CCCC(c3nc(-c4ccncc4)ncc3-c3ccccc3C)C2)c1O (stereo not given)	5%	-12%
17	O=C1C=C(c2cnc3ccccc3c2)C[C@@H](c2ccc3c(c2)OCO3)C1	-18%	i
18	Cc1ccc(-c2nc3c(Cl)cc(C(F)(F)F)cn3c2Cc2ccccc2)cc1	10%	27%
19	CN(C)CCN1CCN(C2CN(C3CCCCC3)S(=O)(=O)C2)CC1 (stereo not given)	8%	38%[activator]
20	Cc1cccn2c(=O)cc(COc3cccc(NC(=O)COc4ccccc4)c3)nc12	-7%	-5%
21	CCOC(=O)/C=C/C(=O)OCC(=O)Nc1c(Cl)cccc1Cl	-5%	-8%
22	O=C(Nc1ccccc1)[C@@H]1CC=C[C@@H]2CCN(C3CC3)C(=O)[C@@H]21	-6%	i
23	CCOc1ccccc1Nc1cc(C)nc2ccc(C)cc12	-17%	i
24	COc1ccc(C=C2CCc3ccccc3C2=O)cc1	-13%	-5%
25	O=C(CC(c1ccccc1)c1ccccc1O)NCc1ccccc1Cl (stereo not given)	-15%	i
26	Cc1ccc(S(=O)(=O)c2nc(-c3ccc(F)cc3)oc2SCC(=O)c2ccccc2)cc1	-16%	-19%
27	C=CCOC(=O)c1cc(-c2ccc(/C=C3\C(=O)NC(=O)C(C#N)=C3C)o2)ccc1Cl	-5%	-13%
28	COc1ccc(N=Nc2c(N)n[nH]c2N)cc1	u	u
29	NC(=O)c1ccsc1NC(=O)COC(=O)CCc1ccccc1	-15%	i
30	Nc1nc(=S)n(-c2ccccc2)[nH]1	2%	-8%
31	COc1ccc(C(=O)NN=C2CCCC2)c(OC)c1	-11%	i
32	CCC(C)NC(=O)c1ccccc1NS(=O)(=O)c1ccc(OC)c(OC)c1 (stereo not given)	-12%	x
33	CC(C)(C)NC1=NCCNC(c2ccccc2)=C1	-2%	i
34	CCc1ccccc1N1C(=O)CN(Cc2cc(OC)c(OC)c(OC)c2)C1=S	2%	-4%
35	CC(C)(CO)Nc1ncnc2onc(-c3ccc(F)cc3)c12	-4%	-11%
36	COC(=O)c1cnc(SCC(=O)c2ccccc2)n1C	3%	i
37	O=C(CNCC1CCCO1)NCc1ccco1 (stereo not given)	-11%	-14%
38	C=C1CCN(c2ccc(C(=O)NCCC)cc2[N+](=O)[O-])CC1	-11%	15%
39	Cc1oc2c(CN3CCCCC3)c(O)ccc2c(=O)c1-c1ccc(Br)cc1	-6%	-7%
40	COc1cc2cc3c4cc(OC)c(OC)cc4cc[n+]3c(C)c2cc1OC	-16%	-16%
41	CN1CCC(=O)N([C@H](CN=[N+]=[N-])c2ccccc2)CC1	0%&-12%	-23%&-3%
42	Cc1onc(-c2c(F)cccc2Cl)c1C(=O)NC(=S)Nc1c(C)n(C)n(-c2ccccc2)c1=O	-7%	-1%
43	Cc1nnc(NC(=O)CSc2ncnc3c2cnn3-c2ccccc2C)s1	-7%	-18%
44	O=C(Nc1cccc2cccnc12)c1cccc2c(Br)cccc12	-4%	-3%
45	CCOC(=O)c1c(C)[nH]c(C(=O)OC(C(=O)N(C)C)c2ccccc2)c1C (stereo not given)	-17%	-20%
46	O=C(Nc1cc(-c2nc3ccccc3o2)ccc1Cl)c1sc2c([N+](=O)[O-])cccc2c1Cl	-3%	-15%
47	O=C(C[n+]1ccccc1)N/N=C/c1ccccc1F	-6%	-5%
48	CCOc1cc(C#N)ccc1OCC(=O)NNC(=O)CC1CCS(=O)(=O)C1 (stereo not given)	-3%	-6%
49	Cc1ccc(CC2CC(=O)N(Cc3ccco3)C2=O)cc1 (stereo not given)	-8%	x
50	CCc1nn(CC(=O)NCCc2ccc(Cl)cc2)c(=O)c2cc3ccccc3n12	-6%	8%
51	CCOC(=O)CCc1c(C)c2ccc(OCC(=O)N(CC)CC)c(C)c2oc1=O	-5%	-11%
52	O=C(c1c(O)cc(O)cc1O)C1c2c(cc(O)c3c2O[C@H](c2ccc(O)cc2)[C@@H](O)C3)OC1c1ccc(O)cc1 (stereo not given in full)	-6%	-9%
53	COc1ccc(OC)c(S(=O)(=O)Nc2cccc(O)c2)c1	-2%	-22%
54	COc1cc(C(O)c2nc(-c3cccc(C(C)C)c3)cs2)ccc1F (stereo not given)	-4%	-5%
55	O=C1OC(Cc2ccncc2)C(O)=C1C1=NCCCN1 (stereo not given)	-5%	-5%
56	COC(C(=O)Nc1cc([N+](=O)[O-])ccc1C)c1ccccc1 (stereo not given)	-1%	-13%
57	Cc1[nH]c(=O)[nH]c(=O)c1/C=N/NC(=O)CCCCCNC(=O)OC(C)(C)C	-8%	i
58	CSCC[C@H](NC(=O)[C@H](Cc1ccccc1)n1c(=O)[nH]c2ccccc2c1=O)C(=O)N[C@@H](Cc1ccccc1)C(=O)O	0%	-2%
59	Cc1cc(CNC(=O)C(C)Cc2ccccc2)nn1C (stereo not given)	-3%	-10%
60	CC(=O)Nc1ccc(C=NN=C2c3ccccc3-c3ccccc32)cc1	u	u

# (next part)
entry	compound	Vaccinia Venus	Vaccinia mCherry
61	CCOc1ccccc1NC(=O)CC1Nc2ccccc2NC1=O (stereo not given)	u	x
62	COc1ccc(/C=C/c2nnc(NC(=O)CSc3ccc(Cl)cc3)s2)cc1	-1%	-13%
63	O=c1c2ccccc2nc(Cc2ccccc2)n1-c1ccc(O)cc1	-14%	-17%
64	Cc1ccc(C)c(C(=O)N(Cc2nc(-c3ccc(Cl)cc3)no2)C(C)C)c1	u	-2%
65	O=[N+]([O-])c1ncccc1OCc1ccccc1Br	-5%	-15%
66	O=C(COC(=O)c1cc(=O)[nH]c2ccccc12)c1ccc(Br)cc1	2%	i
67	COc1ccc(S(=O)(=O)N2CCC(Oc3ccc(-n4cnnn4)cc3)CC2)cc1OC	-22%	-16%
68	Cc1ccc(NC(=O)Nc2ccc(S(N)(=O)=O)cc2)cc1	-8%	-8%
69	O=C(COc1ccc2ccc(=O)oc2c1)c1ccccc1	-2%	-6%
70	Cc1c(C)c2ccc(OCC(=O)NCCN3CCOCC3)c(C)c2oc1=O	0%[7.34 µM]	i[7.34 µM]
71	COC(=O)[C@H](CCSC)NC(=O)Cn1cnc2c(NCc3ccccc3)ncnc21	-9%	-14%
72	CC(C)(C)C(=O)Cn1c(=O)n(CC2CCCO2)c(=O)c2ccccc21 (stereo not given)	-11%	-19%
73	CCc1nc(NC(C)(C)C)c2cnn(-c3ccccc3)c2n1	1%	-14%
74	Cc1c(Cl)cccc1NC(=O)c1ncoc1-c1ccco1	-3%	-26%
75	CCOc1ccc(OCC)c(NC(=O)c2csc3c2CCCC3)c1	-11%	-20%

# Whole records, looked up by structure. Values in the order: Vaccinia Venus | Vaccinia mCherry
# Cc1c(C)c2ccc(OCC(=O)NCCN3CCOCC3)c(C)c2oc1=O is listed with 0%[7.34 µM] | i[7.34 µM]
# Cc1ccc(C)c(C(=O)N(Cc2nc(-c3ccc(Cl)cc3)no2)C(C)C)c1 is listed with u | -2%
# O=c1c2ccccc2nc(Cc2ccccc2)n1-c1ccc(O)cc1 is listed with -14% | -17%

# Part of the list above, with two lines to a compound:
# Under each structure: Vaccinia Venus | Vaccinia mCherry
[69] O=C(COc1ccc2ccc(=O)oc2c1)c1ccccc1
  -2% | -6%
[71] COC(=O)[C@H](CCSC)NC(=O)Cn1cnc2c(NCc3ccccc3)ncnc21
  -9% | -14%
[64] Cc1ccc(C)c(C(=O)N(Cc2nc(-c3ccc(Cl)cc3)no2)C(C)C)c1
  u | -2%
[61] CCOc1ccccc1NC(=O)CC1Nc2ccccc2NC1=O (stereo not given)
  u | x

# The list goes on:
entry	compound	Vaccinia Venus	Vaccinia mCherry
76	COc1cc(/C=N/O)cc(Br)c1OCc1cccc(Cl)c1	-24%	u
77	O=C(N/N=C1\CC2CC=CC12)c1ccc(Br)cc1 (stereo not given)	3%	i
78	OC[C@@H]1CN(CCN2CCOCC2)C[C@H](n2cnc3c(NCc4ccc(F)cc4)ncnc32)O1	-7%	1%
79	CC(C)(C)NC(=O)C(c1ccccc1)N(C(=O)c1csnn1)C1CC1 (stereo not given)	-5%	-8%
80	O=C(NCc1ccncc1)C(=O)NCC1OCCN1S(=O)(=O)c1cc(F)ccc1F (stereo not given)	-6%	-14%
81	CCN(CC)S(=O)(=O)c1ccc2c(c1)nc(CCC(=O)OCc1c(C)noc1C)n2C	-16%	-17%
82	COC(=O)c1ccccc1NC(=O)CSc1nc(-c2ccccc2)cc(C(F)(F)F)n1	8%	-6%
83	CN(C)Cc1c(O)ccc2[nH]cnc12	-14%	x
84	O=C(NC(Cc1ccccc1)C(=O)O)C1CCN(S(=O)(=O)c2cccc(C(F)(F)F)c2)CC1 (stereo not given)	-1%	-11%
85	Cc1ccc(C)c(NC(=O)c2ncn[nH]2)c1	-5%	-10%
86	CCOC(=O)c1c(C)[nH]c(C)c1C(=O)COC(=O)[C@@H](NC(=O)c1ccccc1OCC)C(C)C	-13%	i
87	COc1ccc(CN2CCSCC2)cc1O	-15%	-16%
88	CCc1[nH]nc2c1C1(CCN(C(=O)OCc3ccccc3)CC1)C(C#N)=C(N)O2	-2%	1%
89	Cc1ccc(N(C)C(=O)C2CCN(S(=O)(=O)c3ccc4c(c3)oc(=O)n4C)CC2)cc1	-3%	-14%
90	COc1ccc(NS(=O)(=O)NC(=O)c2c(C)n(C)c3ccccc23)cc1	-16%[7.34 µM]	-13%[7.34 µM]
91	N#CC1(c2c(O)nc3n(c2=O)CCCS3)CCCCC1	-8%	i
92	CCS(=O)(=O)N1CCC(n2c(C(F)(F)F)nc3cccnc32)CC1	4%	-11%
93	CN(CC(=O)NC1CCCCCC1)S(=O)(=O)c1ccc(F)cc1	-9%	-17%
94	CN(C(=O)Oc1cccc2cccnc12)c1ccccc1	-4%	-3%
95	COCc1[nH][nH]c(=O)c1C=Nc1ccc(Cl)cc1	-12%	-16%
96	O=C(O/N=C/c1ccc2c(c1)OCO2)c1ccc([N+](=O)[O-])cc1	-5%	-12%
97	Cc1cc2nc(NC(=O)C3(C)CCN(C)C3)[nH]c2cc1C (stereo not given)	-5%	2%
98	COc1ccc(NC(=O)Nc2c[nH]c(=O)[nH]c2=O)c(OC)c1	4%	-1%
99	Cc1cccnc1C(NC(=O)C1CCN(CCOc2ccc(F)cc2)CC1)c1ccc(Cl)cc1 (stereo not given)	u	u
100	CC(C)(C)c1cc(-n2ccnc2)n2ncc(-c3ccc(Cl)cc3)c2n1	-5%	i
101	Cc1cccc(/C=N/n2c(-c3ccccc3)n[nH]c2=S)c1O	-20%	i
102	Cc1cccc(C(O)c2ncc(-c3ccccc3)[nH]2)c1C (stereo not given)	-4%	i
103	CC(=O)Nc1ccc(NC(=O)c2nc(SCc3ccccc3F)ncc2Cl)cc1	-18%	17%
104	COc1ccccc1OCC(=O)NN=C(Cc1ccccc1)Cc1ccccc1	-4%	i
105	CC[C@]12CCCN3CCc4c(n(c5ccccc45)C(=O)C1)[C@@H]32	-23%	u
106	CC[C@]1(c2ccccc2OC)ON(c2ccccc2C(F)(F)F)C1=O	u	-23%
107	CCOC(=O)c1[nH]c2ccc(F)cc2c1NC(=O)CCN1CCOCC1	-6%	-2%
108	Cc1ccc(C)c(N(CC(=O)NC2CCCC2)C(=O)c2cc3cc4cccc(C)c4nc3s2)c1	-13%	i
109	O=C(N/N=C\c1ccc(-c2ccc([N+](=O)[O-])cc2)o1)c1ccc2c(c1)OCO2	-11%	i
110	Cc1ccc(S(=O)(=O)N(C)CC(=O)OCC(=O)Nc2ccccc2)cc1	-13%	-8%
111	Cc1ccccc1NC1=C(Cl)C(=O)N(C2CCCCC2)C1=O	-20%	-6%
112	CC(C)(C)NC(=O)CSc1nnc(NC(=O)CCn2cnc3ccccc3c2=O)s1	-2%	-15%
113	CCOC(=O)C1(Cc2ccc(Cl)cc2)CCN(C(C)CCn2cccn2)CC1 (stereo not given)	-22%	i
